Screens (PubChem)
Ab BasE inh: BasE siderophore biosynthesis inhibition | purified BasE, fluorescence polarization binding displacement | inhibition, % (no concentration beside the values) | actives 0.1% (n = 84,000) | AID 485350;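 active = both replicates above 25% with normal brightness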;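 also: 0% = negative plate control signal and 100% = positive plate control signal; stock transfer was 100 nL into about 30 µL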
KSHV LANA nucl: LANA-nucleosome interaction inhibition. z-score (concentration not given with the values). AID 720717. actives 0.3% (n = 51,000). FITC-LANA1-23 / chicken nucleosome fluorescence polarization; active compounds read low;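 active = both repeat wells score below -2 in polarization z-score versus plate sample wells, excluding overly bright wells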;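 also: 100 nL library stock added to about 30 µL; numbers are from one replicate; some results filed as inactive read as strong as hits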
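Test system: purified chicken nucleosomes with FITC-labelled LANA N-terminal peptide (1-23); Input: 240 nM purified chicken nucleosomes (480 nM peptide binding sites), final; Medium: TEN-BT buffer, pH 7.5; Timing: 10–45 min, room temperature; Technique: fluorescence polarization, 480 nm excitation, 535 nm parallel and perpendicular emission; Replication: duplicates.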
* = called active by the depositor; . = not tested or not shown; & = joins results of further samples. This is a subset; count on the stated rates, not on these rows.

SMILES	Ab BasE inh	KSHV LANA nucl
O=C(OCC1CCCN2CCCCC12)c1cc2ccccc2oc1=O (configuration not stated)	.	-0.17
O=C(Nc1cccc(F)c1)N1CCN(Cc2ccccc2)CC1	3.9	-0.049
COc1ccc(N2CCN(C(=O)CSc3ccc(S(=O)(=O)N(C)C)cn3)CC2)cc1	-1.9	.
O=c1cc(CNc2ccc(Br)cc2)nc2sccn12	0.3	.
O=C(NCc1ccccc1)c1ccco1	-1.1	0.56
NCC1Cc2ccccc2O1 (configuration not stated)	-2.1	-1.5
CS(=O)(=O)N1Cc2ccccc2CC1C(=O)OCC(=O)Nc1sccc1C#N (configuration not stated)	-9.6	.
COc1ccc(S(=O)(=O)NC(C)C(=O)NCC2CCCO2)cc1Cl (configuration not stated)	1.4	0.43
CS(=O)(=O)c1ccccc1C(=O)Nc1ccc(N2CCCCC2)cc1	0.8	.
N#CC(C#N)=C(N)C(C#N)Cc1ccc(Cl)cc1 (configuration not stated)	-0.3	.
CC(C)NC(=O)Nc1ccc2snnc2c1	-1.8	0.83
Cc1ccc(Nc2nc(Oc3ccc(OCCOc4ccccc4)nn3)nc(N(C)C)n2)cc1	1.0	-1.3
COc1ccc(C=NCC2(c3ccccc3)CCCC2)c(OC)c1	0.5	.
CCN1CCN(C2=Nc3c(Cl)cc(Cl)c4cccc2c34)CC1	-1.0	.
CSc1ccc(-c2nc(CSCC(=O)NC(C)C)c(C)o2)cc1	0.7	0.45
O=C1N/C(=C/c2ccc(-c3ccccc3)o2)C(=O)N1Cc1ccc(Br)cc1	-9.7	1.1
CN1CCC(N(C)C(=O)c2ccc(Cl)c(S(=O)(=O)N3CCc4ccccc43)c2)CC1	1.0	.
CN(C)C(CNC(=O)c1ccc(Br)cc1)c1ccco1 (configuration not stated)	-2.6	-0.053
O=C1CC2(CCN(C(=O)Nc3ccccc3)CC2)Oc2ccccc21	1.4	-0.29
O=C1CCCC2=C1C(c1ccc(OC(F)F)cc1)C1=C(CCCC1=O)N2	2.1	.
Cc1nc(C(=O)NNc2ccc(F)cc2)c(C(F)(F)F)o1	-1.8	-0.67
COC(=O)c1oc2ccccc2c1O	12	-0.85
c1ccc(COn2c(-c3ccccc3)nc3ncccc32)cc1	.	-0.41
O=C(c1cccs1)N1CCN(C/C=C/c2ccccc2)CC1	2.3	-0.48
Cc1cc(C(=O)N2CCCCCC2)cs1	-1.9	0.54
Cc1noc(C)c1CN1C(=O)NC2(CCCc3sccc32)C1=O (configuration not stated)	1.9	.
CC1=C(C(=O)C(F)(F)F)CCC(=O)N1CCCN1CCCC1=O	0.3	.
CCCC(=O)N1CCN(c2ccc(NC(=O)c3cccc(C)c3OC)cc2Cl)CC1	1.9	-0.4
CC(C)N(C(=O)c1cccs1)C(C)C	3.1	-1.3
Cc1cc(C)nc(NCC(C)c2ccccc2)n1 (configuration not stated)	-2.8	-0.063
CCCN1C(=O)c2ccc(-c3nc4cc(Cl)ccc4c(=O)o3)cc2C1=O	0.0	-0.56
O=S(=O)(c1ccc(F)c(Cl)c1)N1CCN(Cc2ccc3c(c2)OCO3)CC1	-2.6	1.7
CNCc1ccc2ccccc2c1	2.8	.
COc1ccc(C2C(C#N)=C(N)OC3=C2C(=O)CCC3)cc1 (configuration not stated)	-2.0	0.89
CC(=O)Nc1ccc2nc(NC(=O)c3cc4ccccc4o3)sc2c1	0.3	-0.93
CC1CN(C(=O)COC(=O)c2n[nH]c3ccccc23)CC(C)O1 (configuration not stated)	-0.6	.
CC(=O)Nc1c(C(=O)N2CCN(C)CC2)oc2ccccc12	4.1	.
Cn1cccc1C(=O)OCC(=O)c1cc2ccccc2o1	-7.6	.
CN1/C(=C\C(=O)CSc2nnc(-c3ccccc3)o2)C(C)(C)c2ccccc21	0.0	.
Cc1cccc(S(=O)(=O)C(C#N)c2nc3ccccc3nc2N2CCCC2)c1 (configuration not stated)	1.6	-0.34
O=C(/C=C/Nc1ccc(S(=O)(=O)N2CCCCC2)cc1)C(F)(F)F	1.1	.
COc1ccc(C(=O)Nc2ccccc2C(=O)NC(C(=O)NCc2ccco2)C(C)C)cc1 (configuration not stated)	3.8	0.2
CC(C)Oc1ccccc1CN	-5.4	1.6
COC(=O)CC(=O)CSc1cc(C)c(C#N)c2nc3ccccc3n12	-1.4	.
O=C(NC1CCCCCC1)C1c2ccccc2C(=O)N1Cc1cccnc1 (configuration not stated)	1.8	0.46
O=C(/C=C/c1cccc(C(F)(F)F)c1)N1CCN(c2ccccc2F)CC1	-2.0	.
COc1ccc(OC)c(C2C3=C(COC3=O)Nc3[nH]c(=O)[nH]c(=O)c32)c1 (configuration not stated)	-1.4	.
NC(=O)C1COc2ccccc2O1 (configuration not stated)	0.9	.
Cc1csc(SC(C)C(=O)NC(C)C)n1 (configuration not stated)	1.1	.
Cc1ccc(S(=O)(=O)n2c(=O)oc3ccccc32)cc1	0.7	0.1
CC(=O)OCC(=O)[C@@]1(O)[C@H](C)C[C@H]2[C@@H]3CCC4=CC(=O)C=C[C@]4(C)[C@@]3(F)[C@@H](O)C[C@@]21C	-4.6	-0.37
Cc1nnc(N2CCCC(C(=O)NCc3ccco3)C2)c2nn(-c3ccccc3)c(C)c12 (configuration not stated)	0.4	.
COc1ccccc1/C=C(\C#N)C(N)=C(C#N)C#N	2.9	0.17
CCN1CCN(C(=S)c2ccc(OCC(N)=O)c(OC)c2)CC1	1.0	-0.56
COc1ccc(COCC(O)CS(=O)(=O)c2ccc(OC)c(OC)c2)cc1 (configuration not stated)	-0.9	.
N/C(=N\OC(=O)c1ccc2nsnc2c1)c1nonc1N	2.5	-0.18
CCOc1ccc(C(C)NC(=O)c2c(C)noc2C)cc1OCC (configuration not stated)	2.0	.
COc1ccccc1NC(=O)C(C)Sc1nc(C)cs1 (configuration not stated)	-1.6	.
O=C(O)CCCc1ccccc1	.	-0.39
COc1ccc(-c2noc(CC(=O)N(C)Cc3ccco3)n2)cc1	-2.0	-0.87

(continued)
SMILES	Ab BasE inh	KSHV LANA nucl
O=C1CCCC2=C1C(Cc1ccccc1)C1=C(CCCC1=O)O2	-1.2	-0.77
O=C(Nc1ccc(Br)cc1)C1CC1	0.1	0.7
C=CCN(Cc1nc(-c2ccc(Cl)cc2)no1)C(=O)C(C)(C)C	-0.9	0.15
O=C(NC1CC(O)c2sccc21)C(F)(F)F (configuration not stated)	.	-1.2
O=C(O)C1C2C=CC(C2)C1C(=O)NCCCN1CCOCC1 (configuration not stated)	-1.0	1.6
c1ccc(-c2cc3cnsc3o2)cc1	0.4	3
CCn1nccc1NC(=O)Cc1ccc(Cl)cc1	2.2	0.37
O=C(Nc1nccs1)c1cccc(S(=O)(=O)N2CCCC2)c1	-1.0	.
CC(Oc1ccccc1)c1ccnn1S(C)(=O)=O (configuration not stated)	.	-0.34
Cc1cc(-c2ccc(C)c(S(=O)(=O)N3CCCc4ccccc43)c2)on1	1.3	.
COc1cc(/C=C/C(=O)O)cc(S(=O)(=O)NCCO)c1OC	0.7	-0.99
COc1ccc2oc(C(=O)OCC(=O)N(C)C)c(C)c2c1	-0.8	.
O=S(=O)(c1ccccc1)N1CCN=C1SCc1ccccc1	-1.6	-0.8
COc1cccc(C(=O)NC2CCSC2=O)c1 (configuration not stated)	-0.8	-1.4
CSc1nc(C)cc(OCCO)n1	1.2	.
CN(C)/N=C/c1ccc(OC(=O)c2ccccn2)cc1	0.0	2.9
N/C(CC(=O)Nc1ccc2c(c1)OCCO2)=N\O	1.5	.
O=C(CNc1ccccc1)N/N=C/c1cn(-c2ccccc2)nc1-c1cc2ccccc2o1	0.4	.
COc1ccc(NC(=O)OCc2ccccc2)cc1OC	-0.8	0.014
O=C(NCc1ccco1)c1ccc(-n2c(-c3ccccc3)cc3c2CCCC3)cc1	-0.7	0.14

Gathered by group, the compounds so far containing an NH in an aromatic ring
SMILES	Ab BasE inh	KSHV LANA nucl
CC1CN(C(=O)COC(=O)c2n[nH]c3ccccc23)CC(C)O1 (configuration not stated)	-0.6	.
COc1ccc(OC)c(C2C3=C(COC3=O)Nc3[nH]c(=O)[nH]c(=O)c32)c1 (configuration not stated)	-1.4	.

Other compounds.
SMILES	Ab BasE inh	KSHV LANA nucl
N#CCCN(CC1CCCO1)C(=S)NC1CC2C=CC1C2 (configuration not stated)	0.8	.
COc1ccc(OCC(=O)N2CCC(C(N)=O)CC2)cc1	1.8	.
O=c1[nH]nc(-c2ccc(F)cc2)cc1-c1ccccc1	3.6	-0.95
CCC(Sc1nnnn1-c1ccccc1)C(=O)NC1=NN=C(c2ccc(C)cc2)CS1 (configuration not stated)	0.9	-0.66
CN(C(=O)c1cccc(F)c1)C(C)(C)C	-0.2	-0.64
CC1=NC2C(C=NN2c2ccccc2)C(SCC(=O)NCCc2ccc(F)cc2)=N1 (configuration not stated)	-2.0	.
Cc1ccc(Cc2c[nH]c(=S)s2)cc1	1.7	.
Cc1cc(-c2nc(C(=O)/C=C/N(C)C)cs2)no1	-1.6	-0.49
CSc1ncc(C(=O)NCc2ccc(S(N)(=O)=O)cc2)n1-c1ccccc1	1.2	.
Cc1ccc(CC(=O)c2cccnc2)cc1	2.2	.
Cc1cccc(C(=O)OCc2cncs2)c1	.	0.45
COc1ccc(Cn2nnnc2CN2CCC(NC(=O)c3cccc(OC)c3)CC2)cc1	-0.5	-0.28
CSc1ccc(NC(=O)N2CCC(N3CCCCC3)CC2)cc1	1.1	-0.59
COc1cc(OC)cc(C(=O)OCC(=O)Nc2ncccn2)c1	1.9	.
S=c1[nH]nc(C2CCCCC2)o1	-1.0	-0.93
COc1ccc(NC(=S)NC(=O)c2oc3ccccc3c2C)c(OC)c1	-1.4	-0.35
CCCCC(O)(c1ccc(N(C)C)cc1)c1ccc(N(C)C)cc1	2.6	0.047
CCOC(=O)CN1CCN(c2ccc(F)cc2)CC1	-0.8	-0.17
CCN(CC)C(=O)NCCN1C(=O)C2C3C=CC(C3)C2C1=O (configuration not stated)	1.0	-0.36
CCc1ccc2nc(NC3=NCN(Cc4ccccc4)CN3)nc(C)c2c1	-2.7	-0.66
CCOCC(=O)Nc1ccc(C#N)cc1	0.3	-0.64
O=C1NC(C2CCCCC2)Nc2ccccc21 (configuration not stated)	1.2	-0.53
COCCn1cnc2c1c(=O)n(Cc1ccc(C#N)cc1)c(=O)n2Cc1ccccc1	2.5	.
N#Cc1cc2c(N)c(C(=O)c3ccccc3)sc2nc1N	-2.4	-0.085
CN(C)CCC=C1c2ccccc2C=Cc2ccccc21	-6.8&-2.0	-0.26&-0.3&0.39
O=C(c1ccc(F)cc1)N1c2ccccc2C=Cc2ccccc21	-4.8	.
CC(=O)Nc1nc2nccc(C)n2n1	3.3	-0.27
O=C(O)c1cccc(CSc2ncn[nH]2)c1	2.7	-0.45
NC(=O)CN1/C(=C(/O)c2ccccc2)C(=O)c2ccccc2S1(=O)=O	0.4	-0.37
Cc1cc(C)c(C)c(S(=O)(=O)N2CC(O)CC2C(=O)O)c1C (configuration not stated)	0.0	.
NC(=O)Nc1nc2cc(Cl)cc(Cl)c2[nH]c1=O	0.8	0.44
CC(C)NC(=S)NCc1cccs1	2.2	0.065
CCC1SC(CC)C(=O)N(CC(=O)NCc2ccc(F)cc2)C1=O (configuration not stated)	1.0	-0.79
O=C1c2ccccc2C(=O)N1Cc1ccco1	0.1	0.38
C=CCn1nc2sc3ccccc3n2c(=O)c1=O	1.2	.
O=C(Nc1ccccc1C(=O)O)c1cc2ccccc2c(=O)o1	-0.4	-0.92
Cc1cc(CN2CCC(C)CC2)cc(C)c1O	-0.9	-0.17
COc1cccc(-c2nc3c(c(SCC(=O)N4CCOCC4)n2)Cc2c(CO)cnc(C)c2O3)c1	-0.7	-0.34
O=C(O)c1ccccc1C(=O)Nc1ccc2c(c1)OCCO2	1.4	.
CCN(C(=O)CSc1ncc(C#N)c(N)n1)c1ccccc1	5.2	0.075
Cc1ccc2nc(CNCc3ccc(S(N)(=O)=O)cc3)cc(=O)n2c1	0.8	.
Cc1nn(C)c(C)c1/C=C/C(=O)N1CCCSc2ccccc21	0.2	.
CCCCNC(=O)Sc1ccc2ccccc2c1	0.1	.
O=C(COn1nnc2ccccc21)N1CCN(c2ccccc2)CC1	-0.7	.
CS(=O)(=O)N(CC(=O)N1CCCC1)c1cccc(Cl)c1Cl	1.8	-1

In the list so far, 15 have fluorine.
SMILES	Ab BasE inh	KSHV LANA nucl
O=C(Nc1cccc(F)c1)N1CCN(Cc2ccccc2)CC1	3.9	-0.049
O=C1CCCC2=C1C(c1ccc(OC(F)F)cc1)C1=C(CCCC1=O)N2	2.1	.
Cc1nc(C(=O)NNc2ccc(F)cc2)c(C(F)(F)F)o1	-1.8	-0.67
CC1=C(C(=O)C(F)(F)F)CCC(=O)N1CCCN1CCCC1=O	0.3	.
O=S(=O)(c1ccc(F)c(Cl)c1)N1CCN(Cc2ccc3c(c2)OCO3)CC1	-2.6	1.7
O=C(/C=C/Nc1ccc(S(=O)(=O)N2CCCCC2)cc1)C(F)(F)F	1.1	.
O=C(/C=C/c1cccc(C(F)(F)F)c1)N1CCN(c2ccccc2F)CC1	-2.0	.
CC(=O)OCC(=O)[C@@]1(O)[C@H](C)C[C@H]2[C@@H]3CCC4=CC(=O)C=C[C@]4(C)[C@@]3(F)[C@@H](O)C[C@@]21C	-4.6	-0.37
O=C(NC1CC(O)c2sccc21)C(F)(F)F (configuration not stated)	.	-1.2
O=c1[nH]nc(-c2ccc(F)cc2)cc1-c1ccccc1	3.6	-0.95
CN(C(=O)c1cccc(F)c1)C(C)(C)C	-0.2	-0.64
CC1=NC2C(C=NN2c2ccccc2)C(SCC(=O)NCCc2ccc(F)cc2)=N1 (configuration not stated)	-2.0	.
CCOC(=O)CN1CCN(c2ccc(F)cc2)CC1	-0.8	-0.17
O=C(c1ccc(F)cc1)N1c2ccccc2C=Cc2ccccc21	-4.8	.
CCC1SC(CC)C(=O)N(CC(=O)NCc2ccc(F)cc2)C1=O (configuration not stated)	1.0	-0.79
